Bioassay records deposited in PubChem BioAssay by National Center for Advancing Translational Sciences (NCATS).
ClpP mod: qHTS Assay for Activators of ClpP; purified B. subtilis ClpP, FRET peptide cleavage, 20 min; Potency, µM (series often up to 57.5 µM), inactives show at the highest dose activity change, negative = active; 1.9% of 340,000 active; active = well fitted falling curve with a large enough effect; inconclusive = small, poorly fitted or top-dose-only effect; inactive = no such curve, though single readings can be large or run the other way; note: potency is the fitted concentration of half-maximal effect; the source files actives as falling curves though it sought activators and does not explain the sign; nearly all actives have a fitted effect of over 65% in size; many hits overshoot -100%
Target sequence (P80244 whole entry, looked up): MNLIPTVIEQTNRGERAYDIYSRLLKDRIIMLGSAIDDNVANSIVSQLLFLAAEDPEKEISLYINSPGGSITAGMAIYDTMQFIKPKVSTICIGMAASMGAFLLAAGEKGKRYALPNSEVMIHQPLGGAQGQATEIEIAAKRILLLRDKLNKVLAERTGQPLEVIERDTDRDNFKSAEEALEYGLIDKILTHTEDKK
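FRET quenching reversal measured ClpP activation: 10 microg/mL B. subtilis ClpP at pH 8 with the FRET-FV decapeptide, read at 430 nm after 320 nm excitation. The 20-min minus 0-min signal was scaled between DMSO/no-enzyme wells and ADEP (5.8 microM final).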
TRPML1 inh: blocks the human TRPML1 channel; TRPML1-inducible cells, Ca2+ dye fluorescence, FDSS; stronger effect = lower value; inhibition of EC80 agonist-evoked calcium signal; activity change, negative = inhibition, % (no concentration beside the values); 0.02% of 390,000 active; in the data active means activity change below about -50%; inconclusive means about -30% to -50%; inactive means above about -30%;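 note: stimulus is agonist 54-4 at its EC80 concentration; % is set by controls: 0 for no effect and ±100 for the full control effect; compound concentration not given in the record; the text of the record puts the active cut at -80%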
Target sequence (Q9GZU1 whole entry, looked up): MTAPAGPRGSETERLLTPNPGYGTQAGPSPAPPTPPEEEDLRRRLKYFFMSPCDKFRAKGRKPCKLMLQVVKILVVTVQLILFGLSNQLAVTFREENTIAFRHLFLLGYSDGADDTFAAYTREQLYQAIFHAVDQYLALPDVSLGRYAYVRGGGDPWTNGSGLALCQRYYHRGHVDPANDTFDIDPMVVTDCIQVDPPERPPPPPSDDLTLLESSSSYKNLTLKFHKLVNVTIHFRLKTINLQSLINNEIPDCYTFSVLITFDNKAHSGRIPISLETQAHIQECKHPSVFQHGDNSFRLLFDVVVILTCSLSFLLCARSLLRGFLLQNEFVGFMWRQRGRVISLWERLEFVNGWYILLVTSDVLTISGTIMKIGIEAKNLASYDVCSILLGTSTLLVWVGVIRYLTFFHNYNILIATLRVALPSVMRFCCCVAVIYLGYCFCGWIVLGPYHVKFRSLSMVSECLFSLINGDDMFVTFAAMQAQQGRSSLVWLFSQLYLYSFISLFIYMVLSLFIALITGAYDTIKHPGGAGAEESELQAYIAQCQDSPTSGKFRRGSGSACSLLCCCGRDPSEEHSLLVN
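Tet-induced TRPML1-DL cells loaded with Ca8 no-wash calcium dye were read kinetically on FDSS. Compound addition was followed by EC80 agonist 54-4 (4 uM final); inhibition was read over 110 s.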
TRPML1 agonist: agonists of human TRPML1 channel; Q9GZU1; TRPML1-expressing cells, Ca2+ dye fluorescence, FDSS; host cell line not named in the record; reference of the full effect not given here; activation, % (no concentration beside the values); 0.12% of 410,000 active; in the data active = activation above about 50%; inconclusive = about 30% to 50%; inactive = below about 30%; note: 0% is about no effect; the text of the record puts the active cut at 80%
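Tetracycline-induced TRPML1-DL cells are seeded and incubated overnight before loading with a no-wash Ca2+ dye and quencher. Agonist activity is taken from the 110 s fluorescence read following compound pin-transfer on an FDSS, before EC80 54-4 challenge.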
Menin MLL FP FL: menin-MLL binding inhibition, fluorescein peptide; Fluorescence polarization, fluorescein-MLL peptide displacement from menin; FP activity change, % at 61.4 µM; 290,000 tested, under 10 active; AID 1766; inconclusive = falling polarisation curve, or a change in total fluorescence; inactive = total fluorescence flat and polarisation flat or rising; no compound was filed as active; the % refers to the polarisation; negative = inhibition;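 note: % of control where 0% means no effect; inhibitors lower the polarisation; unlabelled MLL peptide was the positive control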
PINK1 modulator: modulators of PINK1 expression; PINK1 immunofluorescence, high-content cytometry, 24 h; 0.2% of 410,000 active; Potency, µM (doses to about 76.6 µM), for the others: top-dose activation (PINK1 increase), hits mostly activators; active = well fitted activation curve with a large enough effect; inconclusive = small, poorly fitted or top-dose-only effect; inactive = flat fitted curve, though single readings scatter; cell line not stated here;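 note: potency is the fitted concentration of half-maximal effect; % of control where 0% means no effect; nearly all actives have a fitted effect of over 65% in size; a mitochondrial uncoupler was the plate control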
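Stable cell line treated 24 h with compounds at 5 concentrations (CCCP controls), then fixed and immunostained for PINK1 plus nuclear and cell stains; PINK1 immunofluorescence quantified by laser-scanning microplate cytometry.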
TRPV1 PAM: potentiators of human vanilloid receptor 1 (TRPV1) | Q8NER1 | TRPV1-expressing cells, Fluo-8 calcium influx, capsaicin EC20 potentiation; host cell line not named in the record; control for the full effect not named in the record | potentiation, % at 8.33 µM | 0.02% of 320,000 active | AID 540277; active means potentiation above 80%; inconclusive means 30% to 80%; inactive means below 30%; note: 0% is about no effect
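Cells expressing TRPV1 were dye-loaded with Fluo-8 and read kinetically: 10 s baseline, 3 min after compound (agonist portion), then 2 min after EC20 capsaicin (allosteric enhancer portion). Calcium-bound dye fluorescence at 480/520 nm.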
Sfp PPTase inh: Sfp phosphopantetheinyl transferase inhibition; Q9F4F7; Biochemical Sfp PPTase activity, qHTS; Potency, µM, without a hit: max response, negative = inhibition, usual class: inhibitors; 3.5% of 310,000 active; active = well fitted inhibition curve with a large enough effect; inconclusive = small, poorly fitted or top-dose-only effect, or another doubt; inactive = no such curve, though single readings can be large or run the other way;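 note: the enzyme is Sfp with the accession as filed and its product quenches rhodamine fluorescence; potency is the fitted concentration of half-maximal effect; 0% = enzyme reaction without inhibitor and -100% = no enzyme wells; top concentration of the series not given in the record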
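Sfp 15 nM + cpd, 15 min RT; start w/ rhodamine-CoA 5 uM, BHQ-2-YbbR 12.5 uM (final); 50 mM Hepes pH 7.6, 10 mM MgCl2, 0.01% NP-40, 0.01% BSA; read 525/598 nm at 0 and 30 min.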
Starred values were filed as active, the others as inactive; ? = inconclusive; / = not tested or not shown; & = joins results of further samples; [ ] = dose if it differs, or a comment. Random draw from the library; 4.4% or so of the library scored in one or more.

SMILES | ClpP mod | TRPML1 inh | TRPML1 agonist | Menin MLL FP FL | PINK1 modulator | TRPV1 PAM | Sfp PPTase inh
Cc1cccc(N(CC(=O)NCCSCc2ccc(Cl)cc2)S(C)(=O)=O)c1C | 0.5% | 14 | -1.1 | / | -1.1% | / | /
Clc1ccccc1-c1nnc2sc(-c3ccncc3)nn12 | -1.3% | -10 | 1.1 | 0.0 | 2.1% | 10 | -5%
CCOC(=O)C(Cc1ccccc1)NC(=O)CCc1nnc2ccc(N3CCCC3)nn12 (centres undefined) | -2.4% | 35 | -0.7 | -1.1 | 1.2% | -3 | 6%
CCCC(C(=O)NC1CCCC1)N(C(=O)Cn1nnc(-c2ccc(C)o2)n1)c1ccccc1OC (centres undefined) | -2.1% | -5 | 1.1 | 1.2 | -1.7%[38.3 µM] | -18 | 13%
CCOC(=O)N1CCN(C(=O)COC(=O)C2CCN(S(=O)(=O)c3c(C)c(C)cc(C)c3C)CC2)CC1 | 27% | 1 | 0.5 | / | 0.3% | 27 | /
Fc1ccccc1Oc1ncnc2c1oc1ccccc12 | 0.1% | -7 | 0.8 | / | 4.2% | / | /
CC1=C(C(=O)OCc2ccccc2)C(c2ccc(Cl)cc2Cl)NC(=O)N1CCCCCC(=O)O (centres undefined) | -1.2% | -2 | -0.4 | 3.8 | -1.4% | 2 | -18%
CN1CCN(c2ccccc2NC(=O)c2ccc(N3CCCC3)c([N+](=O)[O-])c2)CC1 | -0.3% | 15 | -1.1 | 0.7 | -0.8% | -14 | 10%
CC(C)(C)OC(=O)N1CCN(C(=O)c2[nH]cnc2C(=O)NCc2ccccc2)CC1 | 0.7% | -5 | -0.6 | / | 0.2% | -3 | /
CCc1ccc(-c2cc(C)no2)cc1S(=O)(=O)Nc1cc(C)on1 | -1.6% | -10 | -0.6 | -0.9 | 1.5% | 1 | -1%
Cc1cc(NC(=O)C2C3C=CC(C3)C2C(=O)O)no1 (centres undefined) | 0.1% | -9 | 0.6 | 3.3 | 3.3%[38.3 µM] | 1 | -4%
COc1ccccc1NC(=O)N(Cc1cc2cc(OC)c(OC)cc2[nH]c1=O)CC1CCCO1 (centres undefined) | -27% | 18 | 0.4 | -1.7 | 1.2% | 3 | 23%
O=C(Nc1ccc2[nH]ncc2c1)c1ccccc1 | 0.1% | 7 | -0.2 | -1.1 | 0.7% | -34 | 13%
Cc1oc2c(c1C(=O)N1CCOCC1)C(=O)c1ccccc1C2=O | 0.2% | 2 | -0.8 | 5.5 | -1.5% | ? | 3%
COc1ccc(COc2ccc3ccc(=O)oc3c2)cc1 | -14% | 14 | 3.9 | -0.5 | -3.5% | 5 | 1%
CCOc1ccc(S(=O)(=O)N(CC(=O)Nc2ccc3c(c2)OCO3)c2ccc(C)cc2)cc1 | -1.2% | -4 | 0.0 | / | 3.7% | / | /
CN(C)c1ccc(C(=C2C=CC(=[N+](C)C)C=C2)c2c(O)c(S(=O)(=O)[O-])cc3cc(S(=O)(=O)O)ccc23)cc1 | -1.1% | / | -1.2 | 6.0 | 1.9% | / | ?
COc1ccc(OC)c(-c2cc(C(=O)Nc3cccc(Cl)c3)no2)c1 | ? | 0 | 0.1 | 0.5 | ? | -5 | 0%
COc1ccc(/C(N)=N/OC(=O)c2cccc([N+](=O)[O-])c2)cc1 | 0.7% | 14 | -0.3 | -0.6 | 5.3% | 2 | 4%
CCCCN(CCCC)CC(O)CN1C(=O)NC(C)(C)C1=O (centres undefined) | 0.9% | 4 | 0.5 | -3.2 | 0.1% | 7 | 0%
Cc1ccc(C(=O)c2c(NC(=O)CSc3nnc(N)s3)sc3c2CCCC3)cc1 | -5.3% | 3 | 1.9 | 4.5 | 0.7% | 3 | 13%
Cc1ccc(-n2ncc3c(=O)n(CC(=O)NCc4ccco4)cnc32)cc1C | ? | 14 | -0.4 | 6.5 | 5.4% | -17 | ?
COc1cc2c(cc1NC(=O)CSc1nnnn1-c1ccccc1)oc1ccccc12 | 578% | -4 | 0.0 | -1.7 | 4.7% | 20 | 9%
CCCC#Cc1ccc2c(c1)O[C@H](CN(C)C(=O)CC1CC1)[C@H](C)CN([C@@H](C)CO)S2(=O)=O | 0.2% | 13 | 0.2 | / | 1.9% | / | /
CCn1c(O)c(C2=NCCCC2)c2ccccc21 | -3.8% | 14 | 0.4 | 3.6 | 1.8% | -14 | 14%

Sorted by length of the SMILES (low to high): some entries from above
SMILES | ClpP mod | TRPML1 inh | TRPML1 agonist | Menin MLL FP FL | PINK1 modulator | TRPV1 PAM | Sfp PPTase inh
O=C(Nc1ccc2[nH]ncc2c1)c1ccccc1 | 0.1% | 7 | -0.2 | -1.1 | 0.7% | -34 | 13%
COc1ccc(COc2ccc3ccc(=O)oc3c2)cc1 | -14% | 14 | 3.9 | -0.5 | -3.5% | 5 | 1%
Clc1ccccc1-c1nnc2sc(-c3ccncc3)nn12 | -1.3% | -10 | 1.1 | 0.0 | 2.1% | 10 | -5%
CCc1ccc(-c2cc(C)no2)cc1S(=O)(=O)Nc1cc(C)on1 | -1.6% | -10 | -0.6 | -0.9 | 1.5% | 1 | -1%
COc1ccc(/C(N)=N/OC(=O)c2cccc([N+](=O)[O-])c2)cc1 | 0.7% | 14 | -0.3 | -0.6 | 5.3% | 2 | 4%
Cc1ccc(C(=O)c2c(NC(=O)CSc3nnc(N)s3)sc3c2CCCC3)cc1 | -5.3% | 3 | 1.9 | 4.5 | 0.7% | 3 | 13%
COc1ccccc1NC(=O)N(Cc1cc2cc(OC)c(OC)cc2[nH]c1=O)CC1CCCO1 (centres undefined) | -27% | 18 | 0.4 | -1.7 | 1.2% | 3 | 23%
CN1CCN(c2ccccc2NC(=O)c2ccc(N3CCCC3)c([N+](=O)[O-])c2)CC1 | -0.3% | 15 | -1.1 | 0.7 | -0.8% | -14 | 10%

More results.
SMILES | ClpP mod | TRPML1 inh | TRPML1 agonist | Menin MLL FP FL | PINK1 modulator | TRPV1 PAM | Sfp PPTase inh
O=C(COC(=O)c1ccc(OC(F)F)cc1)NC(=O)NC1CCCC1 | 1.4% | -6 | 1.7 | / | -1.7% | 2 | /
COc1cc(/C=N/NC(=S)Nc2cccc(S(=O)(=O)N(C)C)c2)ccc1O | 0.4% | 20 | 1.2 | 7.1 | 7.7% | 3 | 10%
Cc1ccc2nsnc2c1NC(=O)c1cncc(Br)c1 | / | 28 | -0.6 | 4.3 | -0.9% | ? | -21%
CCN(CCCNC(=O)Cn1ncc2c(=O)oc3ccccc3c21)c1cccc(C)c1 | -17% | 2 | 0.9 | -1.5 | 5.1% | / | -10%
CCCCN(C(=O)CCCc1nc2ccccc2s1)c1c(N)n(CC(C)C)c(=O)[nH]c1=O | -3.2% | 5 | 2.1 | / | 1.3% | -5 | /
CCCc1c(C(=O)N/N=C/c2ccc(C)o2)nnn1-c1nonc1N | -8.6% | 3 | -0.5 | / | 5.9% | / | /
COc1cccc(C(=O)Nc2ccccc2N2CCOCC2)c1 | -2.7% | -19 | 0.1 | -0.5 | -0.8% | 5 | 19%
COC(=O)c1cc(NC(=O)C2CCCN(S(=O)(=O)c3c(C)n[nH]c3C)C2)cc(C(=O)OC)c1 (centres undefined) | -25% | 5 | -1.1 | 0.8 | 1.3% | 0 | 13%
Cc1oc(-c2ccccc2F)nc1CN1CCC(C(=O)NCCc2ccccc2)CC1 | -1.7% | 4 | 0.3 | / | 1.5% | / | /
O=C(NCCOC12CC3CC(CC(C3)C1)C2)c1cccc(Br)c1 | -1.0% | 61 | 2.3 | 2.7 | 15%[38.3 µM] | -12 | 7%
Cc1nc2nc(SCc3ccc([N+](=O)[O-])cc3)[nH]c2cc1Br | 3.7% | -12 | 0.2 | 3.6 | 2.1% | 2 | -11%
CCCCn1nnnc1C1(C)CCC(=O)N1Cc1ccco1 (centres undefined) | -3.0% | / | -0.2 | / | -0.9% | / | /
CC(C)(C)c1ccc(C(=O)NNC(=O)C2CCCCC2)cc1 | 0.5% | 5 | 4.5 | -1.9 | 1.8% | -17 | 4%
CSc1ncccc1C(=O)NCc1ccccc1Cl | / | 6 | -0.1 | -1.3 | 0.8% | 19 | -1%
COc1cc(C(=O)NCc2ncccc2C)ccc1OC1CCN(C(C)=O)CC1 | -1.3% | 6 | 0.0 | / | 0.0% | -3 | 27%
CCOC(=O)c1[nH]c(C)c(C)c1C | -0.3% | 6 | 0.1 | 0.1 | 1.4% | 0 | 5%
COc1ccccc1N1C(=O)c2ccc(C(=O)Nc3ccc(C(=O)O)cc3)cc2C1=O | -1.6% | 12 | -0.1 | -6.1 | -1.9% | -10 | 10%
Cc1ccc(S(=O)(=O)NC(=NC2CCCCC2)c2ccc(Cl)cc2)cc1 | / | 18 | 0.8 | -4.2 | 9.9% | -3 | 9%
COc1cc(CN(C)C(C)C(=O)Nc2ccc([N+](=O)[O-])cc2Cl)ccc1OC(F)F (centres undefined) | -2.2% | 12 | 0.4 | -1.9 | 1.4% | -11 | ?
CCOC(=O)CCN(Cc1ccccc1)S(=O)(=O)c1csc(C(N)=O)c1 | 0.6%&1.0% | -10&8 | 0.7&-1.0 | / | 1.3%&0.6% | 1 | -1%
CCC(CC)NC(=O)CCc1nc2ccccc2c(=O)[nH]1 | -1.4% | 14 | 2.5 | 1.9 | 7.7%[38.3 µM] | -9 | 25%
O=[N+]([O-])c1ccc(CSc2ccc(S(=O)(=O)N3CCOCC3)cn2)cc1 | 0.0% | -10 | -0.2 | / | -1.2% | -15 | /
O=C(O)C1CC=CCC1C(=O)NNS(=O)(=O)c1ccccc1 (centres undefined) | / | 17 | -0.3 | -0.3 | -0.1% | -2 | 8%
COc1cccc(C(=O)Nc2ccc(NC(=O)C(C)(C)C)cn2)c1 | 0.3% | 4 | 0.0 | -2.1 | -1.0% | -8 | 10%
NC(=O)c1ccsc1NC(=O)CCS(=O)(=O)c1ccc(Cl)cc1 | -3.1% | 10 | -1.1 | / | 2.5% | -8 | /
CC(C)c1ccccc1OS(N)(=O)=O | 0.7% | -4 | -0.4 | -0.6 | 1.7% | 1 | 0%
COc1ccc(C2CC(=O)Oc3cc(OC)ccc32)cc1 (centres undefined) | 0.1% | 10 | -0.3 | -2.6[94.6 µM] | -0.5% | / | -29%
